MT1-MMP act inh: inhibitors of human MT1-MMP activation | HT1080 RFP-PRO-GFP cells, GFP/RFP ratio fluorescence, overnight; percent of plate control window, DMSO zero | P50281 | GFP/RFP ratio change, % at 20 µM | 360,000 compounds, 0.061% hits | AID 651647;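 active means GFP/RFP ratio change of at least 30% with cell ATP level not reduced by more than half and red fluorescence within 50% of control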; further: strong numbers were not always called active
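Assay system: RFP-PRO-GFP reporter HT1080 cells; read-out basis: GFP/RFP fluorescence ratio; benchmarks: DMSO wells and RFP-L50D-GFP cells; doses: 20 µM single dose, 1% DMSO; schedule: overnight cell settling, then overnight compound exposure, 37 °C, 5% CO2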
eIF4H inh: inhibitors of RNA binding by human eIF4H; Q15056; eIF4H fluorescence polarization binding assay; 290,000 compounds, 0.94% hits; inhibition, % at 35 µM;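 active means 50% or more with normal probe brightness, or confirmed in later tests; inconclusive means above 50% with abnormal brightness, or retests that disagree; inactive means below 50% or failed in later tests; about a fifth of its hits are not listed in these tables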;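 further: calls also rest on retests at 20 µM and on dose response follow-up; 0% = protein and probe with vehicle and 100% = probe without protein; strong numbers were not always called active; many hits fall short of the cut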
HIV Env fusion: inhibitors of HIV Env-mediated cell fusion. 360,000 compounds, 1.1% hits. HeLa-JRFL Env/CEM21 cell fusion, luciferase. inhibition, % at 12.3 µM. AID 651610;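 active means mean replicate inhibition score of at least 50 and every replicate individually at or above 50; inconclusive means only one of the two criteria met; inactive means mean below 50 and not all replicates reaching 50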;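 further: 0% = plate neutral controls and 100% = maraviroc near 300 nM; one replicate is shown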
CSC inhib: cancer stem cell inhibition. cancer stem cell-like cells viability, luminescence. 300,000 compounds, 1.1% hits. inhibition, % at 7.5 µM;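 active means mean at 75% or more and at least half the replicates too; inconclusive means mean and replicates disagree; tested in HMLE shEcad cells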;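 further: 0% = median of negative and 100% = median of positive control wells; the first replicate is given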
PABP FP inh: blocks human PABP binding to poly(A) RNA; P11940; fluorescence polarization; inhibition, % at 35 µM; 290,000 compounds, 1% hits; AID 2014;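 active means 50% or more with normal probe brightness, or confirmed in later tests; inconclusive means above 50% with abnormal brightness, or retests that disagree; inactive means below 50% or failed in later tests; about a fifth of its hits are not listed in these tables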;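 further: calls also rest on retests at 20 µM and on dose response follow-up; controls were probe without protein and protein plus probe with vehicle; some compounds called inactive have numbers as strong as hits; many hits fall short of the cut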
UUG fidelity: modulators of start codon recognition fidelity in yeast; S. cerevisiae UUG-firefly luciferase reporter, luminescence/redox ratio; AID 602363; activity score, % at 18.7 µM; 350,000 compounds, 0.13% hits;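 active means replicate mean at a twofold rise or more, about +100% in these data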;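 further: firefly luciferase made from a UUG start codon reports start codon fidelity; reporter light over untreated wells divided by growth signal over untreated wells; some hits fall short of that in this replicate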
Rce1 inhib: blocks yeast Ras-converting enzyme. calls only. 290,000 compounds, 0.27% hits. yeast membranes, quenched prenylated peptide cleavage fluorescence. AID 2563. Q03530;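 active means fall in fluorescence gain of 50% or more versus controls, with final raw signal at or below 3038400; inconclusive means same 50% fall but final raw signal above 3038400; inactive means fall in fluorescence gain under 50%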;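 further: plate controls were neutral control wells for no effect and wells lacking membranes for full effect; tested at 10 µM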
Target sequence (Q03530 whole entry, looked up): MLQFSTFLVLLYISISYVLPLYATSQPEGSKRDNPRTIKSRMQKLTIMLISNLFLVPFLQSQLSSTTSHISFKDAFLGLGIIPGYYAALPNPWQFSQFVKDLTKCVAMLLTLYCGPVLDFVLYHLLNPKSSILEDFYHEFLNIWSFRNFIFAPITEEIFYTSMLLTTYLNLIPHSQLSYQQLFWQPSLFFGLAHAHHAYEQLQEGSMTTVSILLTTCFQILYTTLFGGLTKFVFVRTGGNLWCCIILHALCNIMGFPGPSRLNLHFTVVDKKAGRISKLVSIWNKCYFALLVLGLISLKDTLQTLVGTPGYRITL
MT1-MMP act inh RFP: further read-out of MT1-MMP act inh, marked with its call; RFP signal change, %; measured here: RFP expression control read;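 0 = vehicle wells; hits needed this value within 50% of zero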
The depositor's hits bear a star; i = inactive; ? = inconclusive; . = no result given; & = joins results of further samples.

SMILES | MT1-MMP act inh | MT1-MMP act inh RFP | eIF4H inh | HIV Env fusion | CSC inhib | PABP FP inh | UUG fidelity | Rce1 inhib
COC(=O)CSc1nnc(CNC(=O)c2cccs2)n1-c1cccc(C)c1 | 1 | 2 | -13 | -12 | . | -4 | -13 | i
CCC1CCCCN1CCCNC(=O)c1ccc2c(c1)c(C)c(C)n2CC (stereo unspecified) | 3 | 3 | 3 | -2 | . | 8 | -6 | i
CCOC(=O)CNC(=O)c1ccc(Br)s1 | 3 | 5 | -5 | -9 | -1 | -2 | -7 | i
COc1ccccc1CNC(=O)C(=O)NCC1CCCN1S(=O)(=O)c1cccs1 (stereo unspecified) | -7 | -2 | . | -26 | -21 | . | -4 | i
Cc1ccc(S(=O)(=O)N(C)CC(=O)OCC(=O)NC(c2ccccc2)c2ccccc2)cc1 | 1 | -1 | 0 | -12 | -12 | -9 | . | .
O=C1CN(C(=O)CSc2nncn2-c2ccccc2)c2ccccc2N1 | 10 | 3 | 7 | -12 | -7 | 3 | -15 | .
Cc1cc(C)c(C(=O)CC(=O)c2cccnc2)c(C)c1 | 16 | 3 | . | 11 | . | . | -28 | .
COc1ccc(CNC(=O)C(c2ccco2)N(C(=O)c2csnn2)c2cccc(C)c2C)cc1 (stereo unspecified) | 1 | 2 | 0 | . | 6 | 3 | -7 | i
CN1CCN(C2Cc3ccccc3Sc3ccc(Cl)cc32)CC1 (stereo unspecified) | -10 | -6 | . | 11 | 22 | . | -10 | .
CC1CC(C)CN(C(=O)COC(=O)/C=C/c2cccc([N+](=O)[O-])c2)C1 (stereo unspecified) | 1 | 2 | . | 10 | . | . | -11 | .
Cn1cc(C(=O)N/N=C/c2cccc(O)c2)ccc1=O | -3 | 1 | 4 | -1 | -16 | 2 | -15 | i
COc1ccc(NC(=O)C/C(C)=N/NC(=O)C(=O)NC2CCCCC2)c(OC)c1 | 1 | 5 | -4 | -2 | -12 | -12 | -11 | i
CCOC(=O)N1CCC(NC(=O)c2ccc(OC)c(CN3CC(=O)N4CCCC4C3=O)c2)CC1 (stereo unspecified) | -1 | -3 | -5 | -14 | -8 | -4 | 20 | i
CC(=O)c1cccc(N2Cc3ccccc3C2=NC(=O)CCl)c1 | -4 | 0 | 0 | -7 | 7 | 10 | . | i
Cc1ccc(-c2nnc(NC(=O)Cc3ccc(F)cc3)o2)c(C)c1 | 6 | 2 | 5 | . | 39 | -10 | -14 | i
O=C(CSc1nccc(=O)[nH]1)Nc1ccc(Oc2ccccc2)cc1 | -2 | 3 | 6 | -8 | . | -2 | -2 | i
CCn1nc(C(=O)NNC(=O)COc2ccc(OC)cc2)c2ccccc2c1=O | 0 | -1 | 5 | -90 | -11 | 33 | -4 | i
CSCCC(NC(=O)c1cccc(C)c1)C(=O)OCC(=O)Nc1c(C)nn(-c2ccccc2)c1C (stereo unspecified) | 2 | 1 | . | -14 | 12 | . | . | i
Cc1ccc(S(=O)(=O)c2ncccc2[N+](=O)[O-])cc1 | -19 | -14 | 0 | -13 | 48 | -2 | -19 | i
COC(=O)c1sc2cc(=O)n(-c3cccc(C(F)(F)F)c3)nc2c1O | -1 | 6 | -6 | -5 | -6 | -23 | . | i
CCO/C(C)=C1\N=C(c2ccc(Cl)cc2)OC1=O | 2 | 7 | 0 | 14 | -1 | 0 | -16 | i
O=C(Nc1ccccc1C(=O)Nc1ccc2c(c1)OCO2)c1ccco1 | . | . | -10 | -33 | 3 | -5 | -10 | i
COc1ccc(CN(C)C2CCCCC2)cc1 | -11 | -5 | 0 | . | -9 | 19 | . | i
O=C(O)c1ccc(Cn2cnc3c(=O)[nH]cnc32)cc1 | 0 | 3 | . | 19 | . | . | -8 | .
CC(C)c1ccc2c(c1)CC[C@H]1[C@](C)(CN)CCC[C@]21C | -5&-1 | -1&2 | . | 27 | . | . | -5&-29 | .
CCC1=C(OC(=O)N(CC)CC)N2C(=O)OC(=NCCc3c[nH]c4ccccc34)[C@]2(C)[C@H]2C1=CC[C@H]1C(=O)N(C)C(=O)[C@H]12 | -5 | -1 | 3 | -4 | -1 | 3 | -3 | i
C[C@@H]1O[C@@H](O[C@H]2[C@H](O[C@H]3C[C@]4(C)C(C[C@@H](O)C5C([C@]6(C)CC[C@@H](C(C)(C)O)O6)CC[C@]54C)[C@@]4(C)CC[C@H](O)C(C)(C)C34)O[C@H](CO)[C@@H](O)[C@@H]2O)[C@H](O)[C@H](O)[C@H]1O (stereo partly specified) | 2 | 4 | . | -25 | -5 | . | 32 | .
CCn1cc(CCC(=O)NCCc2ccccc2)c2ccccc21 | 1 | -3 | 0 | 12 | -1 | -4 | -13 | i
CC(C)(C)N1C(=O)[C@H]2[C@@H](c3ccc(Br)cc3)N3C(=O)N(c4cccc(Cl)c4)C(=O)[C@@]3(C)[C@H]2C1=O | -1 | -1 | . | 73* | -9 | . | -15 | i
CCCc1nnc(NC(=O)CCC(=O)NC2CCCCC2)s1 | -1 | 0 | -4 | 0 | 4 | -5 | -14 | i
Cc1ccc2cc(CCNS(=O)(=O)c3ccc(F)cc3)c(=O)[nH]c2c1 | -1 | -4 | 23 | 1 | 4 | 36 | -10 | .
Cc1ccc2c(cnn2C(=O)CCC(=O)N2CCCCC2C)c1 (stereo unspecified) | 0 | 1 | -4 | -14 | -6 | 8 | -1 | i
Cc1ccc(S(=O)(=O)Nc2cccc(C(=O)NCC(c3ccco3)N3CCCC3)c2)cc1F (stereo unspecified) | 0 | -4 | . | -30 | -10 | . | -3 | i
CCC(C)NC(=O)CN1C(=O)CSc2ccc(S(=O)(=O)N3CCCC3)cc21 (stereo unspecified) | 1 | 3 | . | -4 | -11 | . | -17 | i
Cc1c(C(=O)N2CCC(C)(C(=O)NS(=O)(=O)C3CC3)C2)oc2ccccc12 (stereo unspecified) | 1 | 1 | . | -1 | . | . | 8 | .
CC(=O)Nc1ccc(C(=O)OCC(=O)c2cccc([N+](=O)[O-])c2)cc1 | -2 | 0 | 26 | 6 | -2 | 16 | -9 | i
O=C(NC1CCN(C(=S)Nc2ccccc2Cl)CC1)C1CCCCC1 | 2 | -2 | 10 | 2 | . | 1 | -23 | i
Cn1c(SCC(=O)Nc2ccc(N3CCOCC3)cc2)nnc1-c1ccccc1 | -2 | -1 | -5 | . | -10 | -8 | -7 | i
O=C(CS(=O)(=O)c1ccc(F)cc1)Nc1nnc(-c2cccs2)o1 | 0 | 4 | . | -83 | -10 | . | . | i
CSc1nc(N(C)C)nc(N(C#N)CCOC(C)=O)n1 | 4 | 2 | 3 | -20 | -9 | -18 | 0 | i
N#CC1CN(C(c2ccccc2)c2ccccc2)C1 | -1 | 4 | -3 | 11 | -3 | -1 | -21 | i
CCOc1ccc(S(=O)(=O)n2nc(C)cc2C)cc1 | 0 | 0 | 4 | 15 | -9 | -4 | -12 | i
CCOCc1nnc(NC(=O)COC)s1 | 6 | 5 | -2 | -14 | -11 | 1 | -12 | .
C(=C\c1ccncc1)/c1ccccc1 | 4 | -3 | -4 | -6 | -4 | 9 | 16 | i
CCN(CC)c1nc(N2CCN(C)CC2)nc2ccccc12 | -4 | -2 | 4 | -1 | -18 | 20 | -9 | i
C=CCNc1nc(NCCNC(C)=O)c2sc(-c3ccccc3)cc2n1 | 6 | 5 | . | -23 | . | . | 18 | .
CCSc1nc(C)nc2sc(C)c(C)c12 | -3 | -3 | 0 | -1 | 5 | -1 | . | i
Oc1ccc(N=Cc2c(O)ccc3ccccc23)cc1 | 2 | 8 | 19 | 22 | 28 | 12 | -18 | i
COc1cccc(CN2C(=NC(=O)C3CC3)SC3CS(=O)(=O)CC32)c1 (stereo unspecified) | -2 | 1 | 4 | -30 | -6 | 2 | -13 | i
CCCCNC(=O)CCC(=O)Nc1ccc2nc(N3CCCCC3)cc(C)c2c1 | 3 | -5 | 0 | -34 | 11 | 1 | . | i
CCc1ccc(NC(=O)CSc2nnc(Cc3cccn3C)n2-c2ccc(OC)cc2)cc1 | -3 | -2 | 1 | -8 | -24 | -11 | 0 | i
CCOC(=O)C(=O)Nc1ccc(S(=O)(=O)N2CCOCC2)cc1OC | 2 | 1 | 2 | -7 | -8 | -2 | -18 | i
CN(C(=O)COC(=O)c1cccs1)c1ccccc1 | 2 | 1 | . | 5 | . | . | 6 | .
Cc1oc(-c2cccc(C(F)(F)F)c2)nc1CN1CCN(c2ccccn2)CC1 | 3 | -4 | -15 | 1 | -8 | 10 | 7 | i
CCOC(=O)c1cc(CC)sc1NC(=O)c1cc(OCC)c(OCC)c(OCC)c1 | -8 | -6 | -22 | . | 34 | -2 | -17 | i
COc1ccc(CCNC(=O)Nc2nnc([C@@H]3C[C@H](O)[C@@H](CO)O3)s2)cc1OC | -6 | 3 | . | -13 | . | . | 5 | .
O=C(O)CCN1C(=O)/C(=C/c2ccc(-c3nc4ccccc4s3)o2)SC1=S | -4 | 7 | ? | . | -15 | ? | -17 | i
CCN1C(=O)/C(=C2/C=Cc3ccccc3N2C)OC1=S | -12 | 1 | 5 | i | 9 | -2 | -2 | i
Cc1cccc(NC(=O)c2ccc(NCC3CCCO3)c([N+](=O)[O-])c2)c1 (stereo unspecified) | 6 | -4 | -5 | -20 | 6 | -8 | . | i
CC1CN(c2cc(-c3ccccc3)c3ccccc3n2)CC(C)O1 (stereo unspecified) | -2 | -2 | 4 | -12 | 23 | -7 | -9 | i
Following part
SMILES | MT1-MMP act inh | MT1-MMP act inh RFP | eIF4H inh | HIV Env fusion | CSC inhib | PABP FP inh | UUG fidelity | Rce1 inhib
CCCc1nc([N+](=O)[O-])c(S(=O)(=O)c2ccccc2)n1CC(C)C | -3 | -19 | -2 | 8 | 23 | -2 | . | i
COc1ccc(OCCOCC(O)CN2CCOCC2)cc1 (stereo unspecified) | -4 | 3 | 1 | . | 1 | 15 | -5 | i
CN(C)/C=C1\C(=O)Nc2ccccc21 | -4 | 2 | -10 | . | 3 | -1 | 0 | i
CC1(C(=O)NS(=O)(=O)c2ccc(F)cc2F)CCN1C(=O)c1ccc(C2CCCCC2)cc1 (stereo unspecified) | 0 | 1 | . | -14 | . | . | 2 | .
CC(=O)C1=C(C)N(Cc2ccccc2)C(=O)N[C@H]1CCc1ccccc1 | 2 | -23 | 5 | -11 | 3 | -15 | 2 | i
C[C@]12c3[nH]c4cc(-c5ccco5)ccc4c3CCN1C(=O)[C@@H](CC(=O)NCC13CC4CC(CC(C4)C1)C3)C[C@@H]2C(=O)N1CCCCC1 | -20 | -16 | . | 34 | . | . | -4 | .
COC(=O)CCSc1cc([N+](=O)[O-])cc2c1c(C1OCCO1)nn2-c1ccccc1 | 5 | -3 | 43 | 7 | -14 | 25 | . | i
COc1ccccc1NS(=O)(=O)/C=C/c1ccccc1 | 9 | 5 | -10 | . | -3 | -6 | 10 | i
Cc1nc(C)c(C(=O)Nc2ccc(C)c(F)c2)o1 | 7 | 4 | 5 | -27 | -12 | 14 | -11 | i

Grouped by structure, the compounds so far containing a cyano group (2)
SMILES | MT1-MMP act inh | MT1-MMP act inh RFP | eIF4H inh | HIV Env fusion | CSC inhib | PABP FP inh | UUG fidelity | Rce1 inhib
CSc1nc(N(C)C)nc(N(C#N)CCOC(C)=O)n1 | 4 | 2 | 3 | -20 | -9 | -18 | 0 | i
N#CC1CN(C(c2ccccc2)c2ccccc2)C1 | -1 | 4 | -3 | 11 | -3 | -1 | -21 | i

Screening data as filed in PubChem.
